VDR inh – vitamin D3 receptor (human) inhibition; P11473; Potency, µM, without a hit: max response, negative = inhibition, actives largely listed as inhibitors; AID 504847; VDR-SRC2-3 peptide fluorescence polarization, 2 h; 400,000 compounds, 0.93% hits; active = well fitted inhibition curve with a large enough effect; inconclusive = small, poorly fitted or top-dose-only effect, or another doubt; inactive = no such curve, though single readings can be large or run the other way; note: series mostly up to about 120 µM
Target sequence (P11473 whole entry, looked up): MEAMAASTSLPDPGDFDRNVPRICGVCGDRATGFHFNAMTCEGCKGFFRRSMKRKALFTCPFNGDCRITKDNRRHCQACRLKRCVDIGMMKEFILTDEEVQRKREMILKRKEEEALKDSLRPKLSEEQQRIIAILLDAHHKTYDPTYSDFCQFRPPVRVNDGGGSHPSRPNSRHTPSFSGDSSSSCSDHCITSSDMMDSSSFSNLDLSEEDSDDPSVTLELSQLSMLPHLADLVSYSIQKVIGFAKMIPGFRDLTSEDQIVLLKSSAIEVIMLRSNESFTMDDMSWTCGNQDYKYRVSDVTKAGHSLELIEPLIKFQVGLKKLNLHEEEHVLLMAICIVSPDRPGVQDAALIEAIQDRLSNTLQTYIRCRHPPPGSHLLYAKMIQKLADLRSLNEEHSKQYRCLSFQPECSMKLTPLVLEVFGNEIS
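Compounds are added to VDR with labelled SRC2-3 coactivator peptide and held 2 h at room temperature. Inhibition of the VDR–peptide interaction is then read as a change in fluorescence polarization.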
* hit, by the source's call; ? = inconclusive. % is set by controls: 0 for no effect and ±100 for the full control effect; potency is the fitted concentration of half-maximal effect. Not all compounds are listed. The share of hits here may be higher or lower than overall.

Start of the data: the first 17 compounds, to show the layout:
VDR inh	mol
25µM*	CC(C)(C)c1ccc(C2=NC(=O)C(CC(=O)O)S2)cc1 (configuration not stated)
4%	O=C(CSc1nc2ncccc2[nH]1)c1ccc2c(c1)OCO2
-10%	O=C(NCc1nnc(SCC(=O)N2CCCC2)o1)c1cccc(C(F)(F)F)c1
9%	Nc1nnc(CC(=O)N/N=C\c2cc([N+](=O)[O-])ccc2O)s1
-22%	COC(=O)c1ccccc1NC(=S)NC(=O)COc1ccccc1
15%	O=C(Nc1cccc(S(=O)(=O)Nc2ccc(Cl)cc2)c1)c1ccc2c(c1)OCCO2
-6%	Cc1cc(Cl)ccc1NC(=S)N1CCC(C(N)=O)(N2CCCCC2)CC1
-5%	Cc1cc(=O)c2n(Cc3ccc(Cl)cc3)nc[n+]2[nH]1
-16%	COc1ccc(-c2nnnn2C(C)C)cc1S(=O)(=O)Nc1ccccc1
-12%	O=C(/C=C/c1ccc(S(=O)(=O)N2CCOCC2)cc1)Nc1cc(F)ccc1F
-20%	Cc1cc2nc3n(c2cc1C)CC1CC(C(=O)NCc2cccc(C(F)(F)F)c2)N(C)C31 (configuration not stated)
0%	Cc1ccc(N2CC(C(=O)NNC(=O)c3ccc(F)cc3)CC2=O)cc1 (configuration not stated)
-12%	N=C(N)SCc1nc2ccccc2c(=O)n1-c1ccccc1Cl
0%	O=C(NCCCO)C(=O)NCc1ccccn1
3%	O=C(NCCc1ccc(C(F)(F)F)cc1)C1COc2ccccc2O1 (configuration not stated)
-13%	Clc1ccc(C2=CSC3=Nc4cccc5cccc(c45)N23)cc1
15%	Nc1cccc2cnccc12

Results, repeating the preview:
VDR inh	mol
25µM*	CC(C)(C)c1ccc(C2=NC(=O)C(CC(=O)O)S2)cc1 (configuration not stated)
4%	O=C(CSc1nc2ncccc2[nH]1)c1ccc2c(c1)OCO2
-10%	O=C(NCc1nnc(SCC(=O)N2CCCC2)o1)c1cccc(C(F)(F)F)c1
9%	Nc1nnc(CC(=O)N/N=C\c2cc([N+](=O)[O-])ccc2O)s1
-22%	COC(=O)c1ccccc1NC(=S)NC(=O)COc1ccccc1
15%	O=C(Nc1cccc(S(=O)(=O)Nc2ccc(Cl)cc2)c1)c1ccc2c(c1)OCCO2
-6%	Cc1cc(Cl)ccc1NC(=S)N1CCC(C(N)=O)(N2CCCCC2)CC1
-5%	Cc1cc(=O)c2n(Cc3ccc(Cl)cc3)nc[n+]2[nH]1
-16%	COc1ccc(-c2nnnn2C(C)C)cc1S(=O)(=O)Nc1ccccc1
-12%	O=C(/C=C/c1ccc(S(=O)(=O)N2CCOCC2)cc1)Nc1cc(F)ccc1F
-20%	Cc1cc2nc3n(c2cc1C)CC1CC(C(=O)NCc2cccc(C(F)(F)F)c2)N(C)C31 (configuration not stated)
0%	Cc1ccc(N2CC(C(=O)NNC(=O)c3ccc(F)cc3)CC2=O)cc1 (configuration not stated)
-12%	N=C(N)SCc1nc2ccccc2c(=O)n1-c1ccccc1Cl
0%	O=C(NCCCO)C(=O)NCc1ccccn1
3%	O=C(NCCc1ccc(C(F)(F)F)cc1)C1COc2ccccc2O1 (configuration not stated)
-13%	Clc1ccc(C2=CSC3=Nc4cccc5cccc(c45)N23)cc1
15%	Nc1cccc2cnccc12
6%	O=C(CCCN1C(=O)c2ccccc2C1=O)Nc1nc2ccccc2[nH]1
-3%	O=c1cc(O)c(-c2ccccc2Cl)c(Cl)[nH]1
-17%	Cc1cc(C(=O)Nc2cccc3ccccc23)co1
-20%	O=[N+]([O-])c1ccc(/C=N/N=C/c2ccc([N+](=O)[O-])o2)o1
4%	COc1ccccc1-c1nn(-c2ccccc2)cc1C(=O)NCC(c1ccco1)N1CCCC1 (configuration not stated)
?	CC(C)(C)N1CSC(=S)N(Cc2ccccc2)C1
18%	CC(C(=O)N/N=C/c1ccc(N(C)C)c(Br)c1)N(c1ccccc1)S(C)(=O)=O (configuration not stated)
-3%	Cc1ccc(C)c(N2C(=O)CC(N3CCN(Cc4ccc5c(c4)OCO5)CC3)C2=O)c1 (configuration not stated)
-1%	O=[N+]([O-])c1ccc(Sc2ncc3ccccn23)nc1
-1%	CCOc1ccc(-n2c(SCC(=O)c3c(N)n(C)c(=O)n(C)c3=O)nnc2-c2cccnc2)cc1
?	CC(=O)c1ccc(-n2c(-c3cc(-c4ccco4)[nH]n3)n[nH]c2=S)cc1
-12%	Cc1cc(C(=O)CSC(C)c2nc3ccccc3c(=O)[nH]2)c(C)n1C (configuration not stated)
8%	COc1ccc(-c2nnn(CC(=O)N(C3CCCC3)C(C)C(=O)NC3CCCC3)n2)cc1OC (configuration not stated)
-20%	O=C(O)COc1ccccc1/C=N/NC(=O)CSc1nnc(SCc2ccc(Cl)cc2)s1
1%	O=C(NCc1cccnc1)c1cc(Sc2ccccc2Cl)nc2ccccc12
45µM*	C=CCOC(=O)C(=O)/C=C/c1csc2ccccc12
10%	CC1=CC2=NC(=O)C(c3ccccc3)C(=O)N2C=C1 (configuration not stated)
-19%	O=C(CCCC1=NS(=O)(=O)c2ccccc2N1)Nc1ccccc1
3%	CCOc1ccc(C2=NC(c3ccncc3)=Nc3ccc(C)cc3N2)cc1OCC
14%	Cc1nc2nc(SCc3ccccc3)nn2c(C)c1C
14%	COc1ccc2nc(NC(=O)c3ccccc3-c3ccccc3C(=O)O)sc2c1
-14%	Cc1ccc(NC(=O)Nc2ccccc2)c(Br)c1
0%	Cc1ccc(C2/C(=C(\O)c3c(C)nc4c(C)cccn34)C(=O)C(=O)N2CCN(C)C)o1 (configuration not stated)
3%	CC(C)(C)c1cc(OS(C)(=O)=O)ccc1O
-8%	CC(C)c1ccc(O)c(NC(=S)NC(=O)c2ccc3c(c2)OCO3)c1
-8%	Cc1ccc(N(CC(=O)NC(C)C)C(=O)CCC(=O)Nc2nccs2)c(C)c1
2%	CSc1nccc(N2CCN(c3ccc(F)cc3)CC2)n1
-3%	CC(NC(=O)/C=C/c1ccccc1)c1ccccc1 (configuration not stated)
5%	O=C(CCC(=O)N1CCOCC1)Nc1ccc(Cl)c(Cl)c1
-1%	CCOC(=O)N1CCN(c2ccc3nnnn3n2)CC1
21%	CCOc1ccc(CC2S/C(=N/c3ccccn3)NC2=O)cc1 (configuration not stated)
-11%	O=C(NCC(=O)N1CCN(S(=O)(=O)c2ccccc2C(F)(F)F)CC1)c1sc2ccccc2c1Cl
7%	COc1ccccc1CNC(=O)CCCn1c(=O)c2ccccc2n(Cc2ccccc2F)c1=O
-13%	Cc1cc(C)nc(NC(=S)Nc2ccccc2)n1
-3%	CN(CC(=O)OCC(=O)NCc1ccccc1)S(=O)(=O)c1ccc(Cl)cc1
17%	Cc1ccc(S(=O)(=O)N2CCOCC2)cc1C(=O)N1CCc2ccccc21
-5%	COc1ccc(OC)c(S(=O)(=O)N2CCN(CC(O)COc3ccc(C#N)cc3)CC2)c1 (configuration not stated)
-26%	S=C(Nc1cccnc1)NC1CCCCCCC1
8%	CCn1nnc2cc(C(=O)Nc3ccc(C)c(Cl)c3)ccc21
-6%	Cc1ccc(C(=O)C[n+]2cc(Br)cc(Br)c2)cc1
15%	O=C(NC1CCCCC1)c1ccc2c(c1)N(Cc1ccc(F)cc1)C(=O)c1ccccc1S2(=O)=O
-5%	Cn1c(=O)c2c(SCCN3CCOCC3)nc(C3CCCC3)nc2n(C)c1=O
5%	COC(=O)COc1ccc(S(=O)(=O)NCCC2=CCCCC2)cc1

New compounds follow.
VDR inh	mol
?	Cc1c(Cc2ccccc2)sc(NC(=O)/C=C/c2cccc3ccccc23)c1C(N)=O
2%	CCC(Sc1nc2n[nH]c(C)c2c(=N)n1-c1cccc(Cl)c1)C(=O)NCCOC (configuration not stated)
-14%	CC1CCCCN1C(=O)CCC(=O)Nc1nnc(C(F)(F)F)s1 (configuration not stated)
-11%	CC(=O)NCCOc1nc(N2CCCCC2)nc(N2CCCCC2)n1
-7%	COC(=O)C(Sc1nc(C)cc(C)c1C#N)c1ccccc1 (configuration not stated)
-6%	Cn1[nH]c(C(F)(F)F)c(C=NCc2ccc(Cl)cc2)c1=O
7%	Cn1nc(C2CC2)cc1NC(=O)CC(CC(=O)O)c1ccccc1 (configuration not stated)
2%	CCOc1ccc(-n2c(SCc3ccc(C(=O)OC)o3)nc3c([nH]c4ccccc43)c2=O)cc1
4%	CC(C)c1[nH]nc2c1C(C(C)C)C(C#N)=C(N)O2 (configuration not stated)
6%	CC(=O)c1ccc(NC(=O)CCC(=O)OCC(=O)c2cccc([N+](=O)[O-])c2)cc1
-2%	CCOCCn1c(CN2CCCC(C)C2)nc2c1c(=O)n(C)c(=O)n2C (configuration not stated)
6%	Cc1noc(C)c1S(=O)(=O)NCc1cccc(Cl)c1
-9%	CCN(C(=O)CSc1nnc(COc2cccc(C)c2)o1)c1nc(C)cs1
-10%	Cc1c(Cl)cccc1N1CCn2c1nc1c2c(=O)n(CC(=O)O)c(=O)n1C
3%	CC(CCc1ccccc1)NC(=O)CCN1N=C(c2ccccc2)CCC1=O (configuration not stated)
0%	CC(C)(C)c1ccc(C(=O)NCCOc2ccccc2F)cc1
-12%	CCc1cc2c(=O)n(CCC(C)C)c(=S)[nH]c2s1
-6%	COc1ccc(CCNC(=O)CSc2nnc3ccc(-c4ccccn4)nn23)cc1
-15%	O=C(O)c1cc(S(=O)(=O)N(Cc2ccccc2)c2cccc(C(F)(F)F)c2)ccc1Cl
13%	N#Cc1cccc(NC(=O)N2CCC3(CC2)CCN(C(=O)c2csnn2)CC3)c1
-15%	COc1cccc(-n2c(C)cc(/C=C3\C(=N)N4N=C(CC(=O)N5CCOCC5)SC4=NC3=O)c2C)c1
-6%	CCc1nnc(NC(=O)c2ccc(COc3cccc(C)c3)o2)s1
-11%	COc1cc2sc(-c3ccc(S(C)(=O)=O)cc3)c(C(=O)NCCCCO)c2cc1OC
-8%	N#CCC(=O)N/N=C/c1ccc(OCC(=O)Nc2ccc(F)cc2)cc1
4%	O=C1CNC(=S)N1Cc1cccc(Cl)c1
3%	CC(C)CNC(=O)c1cccc(NC(=O)c2ccco2)c1
1%	COc1cccc(C(=O)Nc2ccc3c(c2)C(=O)NC3=O)c1
9%	O=C(COC(=O)/C=C/c1ccc(Cl)cc1)NC1CCCC1
-7%	COc1cccc(CNC(=O)CC2C(=O)NCCN2Cc2ccoc2)c1OC (configuration not stated)
-4%	CC(OC(=O)c1cccs1)C(=O)Nc1nc(-c2ccccc2)cs1 (configuration not stated)

3 compounds out of the list, arranged by SMILES length, low to high:
VDR inh	mol
-6%	CCc1nnc(NC(=O)c2ccc(COc3cccc(C)c3)o2)s1
7%	Cn1nc(C2CC2)cc1NC(=O)CC(CC(=O)O)c1ccccc1 (configuration not stated)
-4%	CC(OC(=O)c1cccs1)C(=O)Nc1nc(-c2ccccc2)cs1 (configuration not stated)

Following part
VDR inh	mol
-3%	O=C(Cc1ccccc1)Nc1ccc(F)cc1
9%	COC(=O)c1c(C)oc2ccc(NS(=O)(=O)c3cccs3)cc12
-16%	O=C(Cc1cccs1)N/N=C/c1ccccn1
-5%	[O-][n+]1onc2c1CCC1N(O)C(c3ccccc3)CC21O (configuration not stated)
12%	COc1ccc(-c2csc3ncnc(N4CCN(c5ccc(OC)cc5)CC4)c23)cc1
13%	O=C(Nc1cccc(-n2cnnn2)c1)c1cc(Cl)ccc1Cl
9%	COC(=O)c1nccnc1C(=O)Nc1ccccc1N1CCOCC1
?	O=C(Nc1ccc(-c2n[nH]c(=S)o2)cc1)c1ccccc1Br
-16%	O=[N+]([O-])c1ccc(COc2ccccc2CN2CCOCC2)cc1
2%	CNC(C)C(=O)NC(C(=O)N1CCCC1C(=O)Nc1ccc2ncccc2c1)C(C)C (configuration not stated)
0%	COc1ccc(/C=N/n2nnnc2N)cc1OC
-16%	Cc1ccc(OCc2cccc(S(=O)(=O)N(C)C)c2)c([N+](=O)[O-])n1
6%	O=C(NCCCc1nc2ccccc2n1Cc1cccc(Cl)c1)c1ccco1
8%	Cc1nc(Nc2ccc(S(N)(=O)=O)cc2)sc1-c1ccccc1
9%	COC(=O)c1ccc2c(=O)n(CCCCCC(=O)NCCc3ccccc3)c(=O)[nH]c2c1
17%	CN(CC(=O)Nc1ccccc1N1CCOCC1)S(=O)(=O)c1ccc(F)cc1
-6%	C[C@H](CO)N1C[C@H](C)[C@@H](CN(C)C(=O)Nc2ccccc2)Oc2ccc(NC(=O)Nc3ccccc3)cc2C1=O
13%	CCOC(=O)Cc1cc(=O)n2[nH]c(-c3ccc(Cl)cc3)cc2n1
10%	COc1cc(C(C)=O)ccc1OCC(=O)Nc1ccccc1N1CCCC1
19%	O=C1CSC(=S)N1Nc1ccccc1
5%	Cc1ccc(-c2nnc(SCC(=O)NC3CC3)o2)cc1
-6%	CC(C)CC(=O)NC(=S)Nc1ccc(Cl)cn1
-12%	COC(=O)c1ccccc1CC1SC(N)=NC1=O (configuration not stated)
10%	O=C(NCC1CCCO1)C1CCN(CC2CCCCC2)CC1 (configuration not stated)
28%	O=C(c1n[nH]c(=O)c2ccccc12)N1CCN(c2ccccc2Cl)CC1
-19%	CC1C(=O)N2CCCc3cc(S(=O)(=O)N4CCCCC4)cc1c32 (configuration not stated)
-5%	COc1cccc(CNC(=O)Cc2ccc(OC)c(S(=O)(=O)N3CCOCC3)c2)c1
-11%	Cc1ccc(NC(=O)c2cc(C)n(-c3cccc(C)c3)c2C)cc1
15%	CC(C)C(C)NC(=O)CN1C(=O)NC(c2ccccc2)(c2ccccc2)C1=O (configuration not stated)
-9%	CN1C(=O)/C(=C/c2coc3ccc(O)cc3c2=O)SC1=S
8%	Cc1cc(C)cc(N(CC(=O)NCC2CCCO2)C(=O)CCC(=O)Nc2cc(C)on2)c1 (configuration not stated)
-7%	O=C(Cn1cnc2ccccc2c1=O)Nc1ccccc1N1CCOCC1
-3%	COc1cc(/C=C2\S/C(=N/S(=O)(=O)c3ccc(C)cc3)NC2=O)c([N+](=O)[O-])cc1OC
18%	COc1cc(OC)cc(C(=O)NC(=S)NCCc2ccccc2)c1
-6%	CC(NC(=O)CN1C(=O)NC2(CCc3ccccc32)C1=O)c1ccc2c(c1)OCCO2 (configuration not stated)
